Screening results deposited in PubChem by several laboratories.
Bead autofluor: counter-screen for toxin protease inhibitors: compound fluorescence; compound autofluorescence counterscreen, microsphere flow cytometry; active compounds read high; fluorescence intensity (no concentration beside the values); 3.1% of 360,000 active;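 active means at least 3 SD above the mean of all compounds, about 16000 in these data; inconclusive means too few beads counted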;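 further: 100 nL of 1 mM stock went into each well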
PrP UTR inh: inhibition of PrP 5' UTR reporter expression | 0.35% of 340,000 active | inhibition, % (concentration not given with the values) | cell-based PrP 5' UTR mRNA reporter, plate reader;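 active means every replicate at 50% or more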;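 further: 0 = median of the neutral control wells; tested in H4 reporter cells; numbers are from one replicate; inactives centre near -14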
RN4220 kill: growth inhibition of S. aureus RN4220, primary screen, OD600; 16 h; inhibition, % (test concentration not listed); 0.33% of 330,000 active;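 active means z-score of -3 or lower and OD600 up to 0.18 on both plates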;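 further: plate controls were untreated cells for no effect and reference antibiotic for full effect; stock transfer was 100 nL into about 80 µL; one replicate is shown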
Mtb hypoxia inh: PubChem AID 1159583; M. tuberculosis hypoxia-regulated fluorescent reporter, fluorescence; fluorescence inhibition, % (no concentration beside the values); 0.1% of 300,000 active;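 active means 35 to 45% if threefold the growth effect, above 45% if 1.5-fold the growth effect; inactive means the rest, general growth blockers included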;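 further: wells of about 50 µL received 100 nL stock; 0% = vehicle wells and 100% = reference inhibitor wells; whole bacteria with a GFP reporter of the hypoxia response; strong numbers were not always called active; many hits fall short of the cut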
BJeLR viability: MLPCN primary cell-based screen for lethality selective to Ras in HRASV12 cells; BJeLR (HRASV12) viability, CellTiter-Glo ATP luminescence, 48 h; reference of the scale not given here; inhibition, % (no concentration beside the values); 0.17% of 300,000 active; AID 1554, 2009;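 active means replicate mean above 50%; inconclusive means above 50% but judged a plate artefact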;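 further: 50 nL library stock added to about 25 µL; numbers are from one replicate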
ugtP null kill: growth inhibition of ugtP-null S. aureus, primary screen, RN4220 ugtP deletion, OD600; 16 h; some inactives read as strong as hits; growth inhibition, % (test concentration not listed); 0.54% of 330,000 active;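 active means z-score under -3 and OD600 up to 0.15 on both plates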;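 further: plate controls were untreated wells for no effect and antibiotic for full effect; wells of about 80 µL received 100 nL stock; the first replicate is given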
Mtb hypoxia inh growth: second read-out of Mtb hypoxia inh, no call of its own (marks repeat the call); growth inhibition, %; measured here: M. tuberculosis growth (absorbance);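 0% = vehicle and 100% = reference antibiotic; read after six days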
* hit, by the source's call; u = inconclusive; x = not tested or not shown.

The line under a structure holds: Mtb hypoxia inh growth	PrP UTR inh	Bead autofluor	BJeLR viability	RN4220 kill	ugtP null kill	Mtb hypoxia inh
Cc1ccccc1C(=O)NNC(=O)CSc1nc(-c2ccccc2)cc(=O)[nH]1
    10.3	-12.3	2209	4.6	6.4	4.6	10.7
O=C(O)CSCC(=O)c1ccccc1
    2.7	-10.1	11044	1.5	4.1	2.2	4.3
Cc1cc(/C=C(\C#N)C(=O)O)c(C)n1C1CC1
    0.0	-32.3	2259	-8.9	2.5	3.1	6.3
CCSc1nnc(NC(=O)CSc2nc3c(c(=O)n2-c2ccccc2OC)SCC3)s1
    4.6	-65.5	10455	-1.9	3.2	13.8	4.1
OC(COc1ccc2ccccc2c1)CN1CCN(c2ccc(F)cc2)CC1 (configuration not stated)
    x	5.2	5902	1.4	5.9	7.8	x
COc1ccc2oc(C)c(C(=O)c3ccccc3)c2c1
    -3.0	-5.1	4600	9.6	0.0	2.7	5.2
COc1cc(/C=N/N=C2/NC(=O)C(CC(=O)O)S2)ccc1OCc1ccc(Cl)cc1 (configuration not stated)
    x	-54.6	2151	-5.5	x	x	x
COC(=O)c1ccccc1NC(=O)CN1CCOCC1
    7.9	-14.5	9760	-3.9	3.1	-2.0	14.3
COC(=O)C1CCN(C(=O)c2c(-c3ccccc3Cl)noc2C)CC1
    9.0	-12.1	3357	-0.2	5.3	-4.2	1.6
Cc1ccccc1N1C(=O)CC(Sc2nnc(-c3ccccc3)o2)C1=O (configuration not stated)
    4.7	0.1	3153	-6.5	0.3	-5.8	16.7
CCN(N=Nc1nonc1OC)c1nonc1OC
    11.5	-10.6	9570	-11.6	0.6	-4.8	9.0
CC[C@]1(C(=O)OC)[C@H]2C(=O)N(Cc3ccccc3)C(=O)[C@H]2[C@H]2CN=C(SC)N21
    -2.6	-7.3	3949	x	-1.3	-0.8	-7.3
C=CCNC(=O)C1CC(=O)N(c2ccc(OCC(=O)Nc3c(C)cccc3C)cc2)C1 (configuration not stated)
    0.6	-20.9	3794	12.0	5.7	-11.4	15.5
Cn1cc(C(=O)c2ccc(Cl)cc2Cl)cc1C(=O)N/N=C(\N)COc1ccc(Cl)cc1
    x	17.1	3319	0.4	x	x	x
O=C(O)c1cnccn1
    -3.4	-4.4	5865	-1.7	7.2	-2.2	6.3
NC(Cc1cc(I)c(O)c(I)c1)C(=O)O (configuration not stated)
    -6.6	x	x	x	7.6	-4.6	-11.1
C=CCn1c(O)c(/C=C2/C=CC=N2)c(=O)[nH]c1=O
    2.5	-4.5	1956	15.8	3.9	8.3	11.4
CC1=C(C(=O)OC(C)C)C(C=Cc2ccccc2)NC(=O)N1 (configuration not stated)
    1.3	x	x	x	5.6	-5.2	2.6
CCc1noc(C)c1C(=O)Nc1nc(-c2cc(C)ccc2C)c(C)s1
    x	-5.7	2673	-4.8	-2.9	7.9	x
Cc1c(O)ccoc1=O
    x	-2.4	6512	8.0	7.3	-12.0	x
Cc1nc(SCC(=O)N(C)C2CCS(=O)(=O)C2)c2ccccc2n1 (configuration not stated)
    -4.0	-3.4	2771	x	0.9	1.3	-9.8
COc1ccccc1NOC(=O)CCOc1ccccc1
    7.5	-30.8	3810	x	4.8	5.9	5.7
CN1C=CC=C/C1=C1\SC(=S)N(N)C1=O
    13.1	-24.6	3925	3.1	12.5	4.4	10.4
O=C(Cn1cnc2c(OCc3ccccc3)ncnc21)NCCCN1CCCC1=O
    3.8	-64.6	2941	x	2.8	5.4	-6.2
CCOC(=O)c1ccc(NC(=O)CSc2ncccn2)cc1
    x	-4.9	4673	x	-3.3	-1.6	x
S=c1[nH]nc(COc2ccccc2)n1N=Cc1ccccn1
    6.1	x	x	x	2.8	4.9	4.9
Cc1onc(-c2ccccc2Cl)c1C(=O)Nc1ncn[nH]1
    12.0	-25.2	7709	-11.7	5.0	6.4	5.6
O=C1NC(=S)S/C1=C\c1ccc(SCc2ccccc2)o1
    2.4	-18.9	2146	x	92.8*	89.5*	9.6
CN(CC(=O)Nc1ccccc1Cl)C(=O)COC(=O)/C=C/c1ccc(C(F)(F)F)cc1
    7.8	-27.8	u	8.1	2.2	6.8	1.0
CC(=O)N1c2ccc(S(=O)(=O)N3CCC(C(=O)N4CCCCC4)CC3)cc2CC1C (configuration not stated)
    4.3	-9.5	5258	-6.1	4.6	-0.6	7.3

The list goes on, overlapping the part above by 3 compounds.
The line under a structure holds: Mtb hypoxia inh growth	PrP UTR inh	Bead autofluor	BJeLR viability	RN4220 kill	ugtP null kill	Mtb hypoxia inh
O=C1NC(=S)S/C1=C\c1ccc(SCc2ccccc2)o1
    2.4	-18.9	2146	x	92.8*	89.5*	9.6
CN(CC(=O)Nc1ccccc1Cl)C(=O)COC(=O)/C=C/c1ccc(C(F)(F)F)cc1
    7.8	-27.8	u	8.1	2.2	6.8	1.0
CC(=O)N1c2ccc(S(=O)(=O)N3CCC(C(=O)N4CCCCC4)CC3)cc2CC1C (configuration not stated)
    4.3	-9.5	5258	-6.1	4.6	-0.6	7.3
CCCCn1nnnc1SCC(=O)Nc1sc2c(c1C#N)CCCC2
    x	-23.6	3105	0.5	6.1	-12.8	x
Brc1ccc(-c2nnc3sc(CN4CCN(c5ccccc5)CC4)cn23)cc1
    6.8	-18.6	11230	49.5	2.4	9.2	-1.6
COc1ccc(C2c3cc(OC)c(OC)cc3CCN2C(=O)c2cccc([N+](=O)[O-])c2)cc1OC (configuration not stated)
    15.6	-10.3	3965	4.2	3.6	1.3	-6.6
CSCCC(Nc1ncnc2ccc(Br)cc12)C(=O)O (configuration not stated)
    -0.1	-32.1	7078	0.0	6.2	1.6	-3.2
C/C=C/C(=O)Nc1cccc(C(F)(F)F)c1
    6.5	-4.1	2377	-0.5	2.0	0.4	1.4
COc1ccccc1NC(=O)C(C)OC(=O)C1CCN(S(=O)(=O)c2ccc(C)c(C)c2)CC1 (configuration not stated)
    x	-0.9	u	0.5	x	x	x
Cc1oc(C(=O)O)cc1COc1ccc2c3c(c(=O)oc2c1)CCC3
    2.8	-8.8	20992*	0.1	3.6	3.9	13.9
O=C(C1COc2ccccc2O1)N1CCN(c2ccccn2)CC1 (configuration not stated)
    6.9	-4.6	u	-1.2	1.4	3.6	3.7
CC1CCCCN1CCCNC(=O)C1CCN(c2nnc(-n3cccc3)s2)CC1 (configuration not stated)
    8.0	-6.8	5741	-10.3	-0.6	-2.9	2.3
Nc1nnc2c(C(F)(F)F)nc3ccccc3n12
    -8.2	0.4	3457	0.9	2.9	10.7	6.2
O=S(=O)(Nc1ccc2c(c1)OCCO2)c1ccc(F)cc1
    8.2	1.9	7900	-6.9	7.7	13.5	11.0
CCOc1ccc(Br)cc1S(=O)(=O)Nc1nc(CN2CCOCC2)nc2sc(C)c(C)c12
    x	-2.0	2177	10.3	6.2	-0.8	x
CCSc1nc2sc3c(c2c(=O)n1CC)CC(C)(C)OC3
    x	-16.3	2990	-4.9	0.8	3.6	x
N#CCC(=O)NN=Cc1ccc(N2N=C(c3ccccc3)CC2c2ccccc2)cc1 (configuration not stated)
    3.6	x	x	x	-2.4	-20.2	4.6
CCO[C@@H]1OC(C(=O)N2CCN(Cc3ccc4c(c3)OCO4)CC2)=C[C@H](C)[C@H]1CCCO
    x	-4.6	2778	-6.8	x	x	x
COc1ccccc1NC(=O)CCNS(=O)(=O)c1ccc2c(c1)CC(C)N2C(=O)C1CC1 (configuration not stated)
    -1.3	-16.9	4906	2.4	1.9	1.2	7.2
O=C(COc1ccccc1-c1ccccc1)NCc1cccc(Cl)c1
    12.9	-6.1	10736	8.8	17.4	-15.6	12.0
Cc1onc(-c2ccccc2)c1C(=O)Nc1ccccc1N1CCOCC1
    8.6	-13.8	8821	7.3	5.9	-14.2	-3.0
Cc1cccc(OCC(=O)Nc2ccc(C(=O)c3ccc(C(=O)O)cc3)cc2)c1
    0.3	-11.0	4649	-2.2	11.5	7.2	10.1
Cc1noc(C)c1COC(=O)C1CCN(C(=O)c2ccc(Cl)cc2)CC1
    5.5	-19.6	3890	-7.3	-1.8	2.2	2.6
O=C(Cc1cccc(NC(=O)C2CCCN(C(=O)C3CCC3)C2)c1)Nc1ccc(C(=O)N2CCOCC2)cc1 (configuration not stated)
    2.9	-2.9	3321	x	2.6	-3.9	-2.8
CC12C=CC(=O)C=C1CCC1C2C(=O)CC2(C)C(=O)CCC12 (configuration not stated)
    6.1	-20.0	3615	x	3.8	4.6	7.5
CCN(CC(=O)Nc1ccc(NC(C)=O)cc1)C(=O)CCCSc1nc2ccccc2[nH]1
    -0.5	-3.2	u	-8.6	0.7	4.7	1.4
COc1ccc2c(Cl)c(C(N)=O)sc2c1
    x	-6.8	2338	2.7	2.2	19.8	x
CC(=O)Nc1ccc(/C=C/c2nc(-c3ccccc3O)n[nH]2)cc1
    x	-52.1	3388	2.1	x	x	x
COCCNC(=O)C(c1ccco1)N(C(=O)Cn1nnc2ccccc21)c1cccc(C)c1C (configuration not stated)
    5.5	-4.8	4657	-2.3	3.1	3.5	2.4
O=C(C[n+]1ccc(C(=O)c2ccccc2)cc1)Nc1ccccc1OC(F)F
    9.4	-22.3	2711	x	-0.4	-1.3	0.6
Cc1cnc(C(=O)OCC(=O)c2ccc[nH]2)cn1
    6.9	-28.4	u	9.7	-1.1	2.6	1.1
CCCCOC(=O)c1ccc(NC(=O)CSC2=Nc3ccccc3C3CC=NN23)cc1 (configuration not stated)
    2.3	-2.1	22279*	-3.0	-6.8	6.7	-12.9
Fc1ccc(Nc2c(-c3ccco3)nc3ccccn23)cc1
    1.0	-18.8	2610	-2.7	3.5	-7.3	0.6

Looked up above.
Reading of Fc1ccc(Nc2c(-c3ccco3)nc3ccccn23)cc1 in RN4220 kill: 3.5
Reading of O=C(C1COc2ccccc2O1)N1CCN(c2ccccn2)CC1 (configuration not stated) in Mtb hypoxia inh growth: 6.9
Reading of CSCCC(Nc1ncnc2ccc(Br)cc12)C(=O)O (configuration not stated) in BJeLR viability: 0.0
Reading of C/C=C/C(=O)Nc1cccc(C(F)(F)F)c1 in Bead autofluor: 2377
Reading of Cc1onc(-c2ccccc2)c1C(=O)Nc1ccccc1N1CCOCC1 in RN4220 kill: 5.9

The results go on.
The line under a structure holds: Mtb hypoxia inh growth	PrP UTR inh	Bead autofluor	BJeLR viability	RN4220 kill	ugtP null kill	Mtb hypoxia inh
Cc1noc(C)c1COC(=O)c1cccnc1Cl
    -0.8	-13.4	5921	-0.4	-0.9	6.1	-8.1
CC(C)(C)c1ccc(C(=O)N2CCN(Cc3ccccc3)CC2)cc1
    10.0	-11.3	3691	-1.0	5.4	2.0	4.1
CCOC(=O)c1cccc(NC(=O)c2cnccn2)c1
    8.1	-27.4	9455	x	-1.4	19.9	2.4
O=C(COc1ccccc1)NCCSc1ccccc1
    12.9	-33.4	4246	6.5	1.3	-1.1	8.6
COc1ccc(C2NCCc3sccc32)cc1 (configuration not stated)
    -0.5	-7.7	2855	-1.5	3.0	-0.2	9.9
C=CCn1c(SCC(=O)Nc2cccc3ccccc23)nnc1-c1cnccn1
    5.1	-3.7	16132*	-0.7	3.1	4.1	3.0
Cc1ccc(F)cc1NC(=O)C1C2CCC(O2)C1C(=O)O (configuration not stated)
    5.0	-80.3	4507	10.1	3.3	3.7	3.4
CCN1C(=O)C2C(c3ccc(-c4cccc(Cl)c4)cc3)N[C@@](Cc3ccccc3)(C(=O)OC)C2C1=O (some centres not stated)
    -2.7	x	x	x	-0.7	-35.4	-3.3
NS(=O)(=O)c1ccc(NC(=S)Nc2cc(Cl)c(Cl)cc2Cl)cc1
    25.2	0.0	2579	5.3	1.7	0.8	-3.0
CC(C)CC(C)N1CCC(n2nccc2NC(=O)CCc2ccccc2)CC1 (configuration not stated)
    2.4	-22.3	7425	-0.9	1.3	5.0	13.7
CN1CCC(N(C)C(=O)c2sc3cc(F)ccc3c2Cl)CC1
    4.1	-17.7	2097	-10.6	7.2	7.5	11.9
O=C(NCc1ccccn1)Nc1cccc(Cl)c1
    5.5	-132.1	10773	-13.1	-0.9	-8.1	4.5
c1ccc2sc(NCC3CCCO3)nc2c1 (configuration not stated)
    -1.5	-57.1	4087	15.9	2.7	2.5	8.3
